FGF22 binding = binders of human FGF22 protein, primary screen, FGF22 synaptogenesis inhibitor project, biophysical, thermal shift, single point; Fibroblast growth factor 22 (Homo sapiens), Q9HCT0; recombinant FGF22 thermal shift, SYPRO orange fluorescence; percent of sucrose octasulfate shift, DMSO zero; calls only at 9.99 µM; 340,000 compounds, 1.5% hits;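 active = melting point raised past a set limit in the mean and every replicate; three in four hits are not shown here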
Target sequence (Q9HCT0 whole entry, looked up): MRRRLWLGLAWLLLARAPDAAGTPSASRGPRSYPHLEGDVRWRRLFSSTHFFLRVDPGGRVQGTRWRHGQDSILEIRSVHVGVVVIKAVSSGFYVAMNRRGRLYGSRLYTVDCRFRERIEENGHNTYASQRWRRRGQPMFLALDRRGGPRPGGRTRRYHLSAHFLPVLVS
rRNA inh HTS = reduced GFP signal of wild-type E. coli, primary screen, bacterial rRNA inhibitor project, GFP/RFP fluorescence, OD600, single point; E. coli WT GFP vs humanized-ribosome RFP mutants, 24 h; active compounds read low; DMSO median 0, no signal -100; GFP signal change (wild-type ribosome), % (test concentration not listed); 350,000 compounds, 1.6% hits;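 active = significant combined selectivity score with lowered wild-type GFP, culture density cut under 30%, mutant RFP and density less affected; inactive = any of these conditions unmet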; also: one replicate is shown; some compounds called inactive have numbers as strong as hits
ALR inh = inhibitors of human ALR sulfhydryl oxidase, primary screen, biochemical, H2O2 detection, HRP-luminol luminescence, single point | FAD-linked sulfhydryl oxidase ALR (Homo sapiens), P55789 | purified ALR, DTT oxidation | inhibition, % (no concentration beside the values) | 290,000 compounds, 3.8% hits;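 active = mean and each replicate at 75% or more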;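 also: stock transfer was 7.5 nL into about 7.5 µL; 0% = neutral wells and 100% = wells with inactivated enzyme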
UCH37 inh = inhibitors of human UCH37 deubiquitinase, primary screen, biochemical, Ub-AMC cleavage, fluorescence; purified proteasome/UCH37; AID 588478, 2011; inhibition, % (concentration not given with the values); Ubiquitin carboxyl-terminal hydrolase isozyme L5 (Homo sapiens), Q9Y5K5; 330,000 compounds, 0.33% hits;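 active = mean of two replicates above 20%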;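 also: 0% = compound-free wells with enzyme and 100% = wells lacking proteasome; stock transfer was 100 nL into about 20 µL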
Target sequence (Q9Y5K5 whole entry, looked up): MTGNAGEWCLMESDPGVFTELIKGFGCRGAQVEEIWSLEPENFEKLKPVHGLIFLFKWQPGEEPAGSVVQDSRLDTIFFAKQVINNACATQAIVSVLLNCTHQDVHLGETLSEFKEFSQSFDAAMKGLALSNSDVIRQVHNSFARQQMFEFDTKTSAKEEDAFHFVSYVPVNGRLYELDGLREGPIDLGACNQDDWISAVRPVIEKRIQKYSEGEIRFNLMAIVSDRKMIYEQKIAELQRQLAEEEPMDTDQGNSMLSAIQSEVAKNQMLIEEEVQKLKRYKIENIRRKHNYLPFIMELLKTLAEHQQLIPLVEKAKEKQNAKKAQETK
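Test system – human UCH37 enzyme supplied as purified proteasome complex · Incubation – 30 min preincubation with enzyme, 25 min cleavage at room temperature · Detection – AMC fluorescence from Ub-AMC cleavage, excitation 355 nm, emission 460 nm · Benchmarks – no-proteasome wells (full inhibition) and compound-free wells (no inhibition)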
Beta2AR agonist = beta2AR agonists driving receptor internalization, primary screen, cell-based, FAP fluorogen, flow cytometry; Beta-2 adrenergic receptor (Homo sapiens), P07550; Am2.2-beta2AR cells; reference of the scale not given here; response, % (concentration not given with the values); 340,000 compounds, 0.43% hits;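 active = response above a set limit, near 3 SD of response in nonfluorescent compounds, cut at about 42% in these data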;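 also: stock transfer was 100 nL into about 11 µL; a reference agonist was the positive control; negative values mostly stem from fluorescent compounds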
Target sequence (P07550 whole entry, looked up): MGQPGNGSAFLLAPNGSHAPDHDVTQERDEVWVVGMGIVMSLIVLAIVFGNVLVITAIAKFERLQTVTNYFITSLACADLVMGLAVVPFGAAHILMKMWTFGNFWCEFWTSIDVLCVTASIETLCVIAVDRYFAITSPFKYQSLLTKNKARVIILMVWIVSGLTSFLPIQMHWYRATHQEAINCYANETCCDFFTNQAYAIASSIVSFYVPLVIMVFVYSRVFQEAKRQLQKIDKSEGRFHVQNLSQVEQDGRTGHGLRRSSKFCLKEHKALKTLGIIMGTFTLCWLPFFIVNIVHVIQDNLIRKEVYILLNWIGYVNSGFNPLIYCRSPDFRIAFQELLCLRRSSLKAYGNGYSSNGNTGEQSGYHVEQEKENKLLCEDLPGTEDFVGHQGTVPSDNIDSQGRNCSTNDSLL
E coli growth = E. coli growth inhibition, primary screen, OD600; Escherichia coli growth, 23 h; active compounds read low; OD600 absorbance (no concentration beside the values); 330,000 compounds, 0.21% hits; AID 1053175, 2014;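 active = OD600 absorbance below the run mean of sample wells minus 3.6 SD, in any replicate, cut at about 0.56 in these data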;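 also: stock transfer was 300 nL into about 60 µL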
HNF4A DNA FP = change in binding of human HNF4A to DNA, primary screen, biochemical, fluorescence polarization, FITC-DNA. 360,000 compounds, 0.3% hits. activity change, % at 10 µM. 1 h; in the data active = activity change above about 30%, passing the limit was not always enough;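 also: controls were the assay level and a saturating level of protein; the project sought stronger binding though the title names inhibitors; some compounds called inactive have numbers as strong as hits; positive values seem to mean higher polarization but the record does not say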
rRNA inh HTS OD600 = also measured in rRNA inh HTS; calls as there; OD600 change, %; measured here: OD600 growth;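 optical density of the mix in the first replicate; 0 = DMSO median and -100 = no signal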
rRNA inh HTS RFP = further read-out of rRNA inh HTS, marked with its call; RFP signal change, %; measured here: RFP humanized mutant strains;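 first replicate; 0 = DMSO median and -100 = no signal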
Numbers without * were called inactive.

COCCCn1c(SCC(=O)NC(C)C)nnc1-c1ccccc1 was read as ALR inh -4, UCH37 inh 2.2, Beta2AR agonist -12, E coli growth 0.71 and HNF4A DNA FP -2.8.
For CC(C)Oc1cccc(C(=O)Nc2nnc([C@@H]3C[C@H](O)[C@@H](CO)O3)s2)c1 the results were FGF22 binding inactive, rRNA inh HTS -12, HNF4A DNA FP -3.2, rRNA inh HTS OD600 -25 and rRNA inh HTS RFP 2.8.
CCOc1ccc(CN(C)C(C)C(=O)Nc2ccc([N+](=O)[O-])cc2Cl)cc1OC (configuration not stated) was read as FGF22 binding inactive, rRNA inh HTS 6, ALR inh -8, UCH37 inh 3.3, Beta2AR agonist -5, E coli growth 0.68, HNF4A DNA FP 2.3, rRNA inh HTS OD600 11 and rRNA inh HTS RFP 3.5.
O=C(CCCC(=O)c1ccccc1)Nc1ccc(F)cc1 was read as FGF22 binding inactive, rRNA inh HTS 5, ALR inh 8, UCH37 inh 4.2, Beta2AR agonist -3, E coli growth 0.66, HNF4A DNA FP 1.9, rRNA inh HTS OD600 2 and rRNA inh HTS RFP -6.3.
Screening O=C(COC(=O)Cc1cccs1)Nc1ccccc1 returned ALR inh -15, UCH37 inh -1.2, Beta2AR agonist 3, E coli growth 0.71 and HNF4A DNA FP -1.9.
`CCCCCOc1ccc(N2C(=O)CC(N(O)c3ccccc3)C2=O)cc1` (configuration not stated) gave ALR inh -3, UCH37 inh 2.0, Beta2AR agonist 14, E coli growth 0.71 and HNF4A DNA FP -2.1.
CCc1nc(N)c(C#N)c(-c2cccn2C)c1C was read as ALR inh -25, UCH37 inh -0.4, Beta2AR agonist -7, E coli growth 0.66 and HNF4A DNA FP 3.8.
`O=C(/C=C/c1cccc(Br)c1)NC1CCN(Cc2ccccc2)CC1` gave FGF22 binding inactive, rRNA inh HTS -8, ALR inh -6, UCH37 inh 1.7, Beta2AR agonist 11, E coli growth 0.67, HNF4A DNA FP -0.8, rRNA inh HTS OD600 1 and rRNA inh HTS RFP 2.3.
Screening Cc1cccc(C)c1NC(=O)CN1CCN(C/C=C/c2ccccc2)CC1 returned FGF22 binding inactive, rRNA inh HTS 21, HNF4A DNA FP -1.2, rRNA inh HTS OD600 10 and rRNA inh HTS RFP 2.7.
For O=C(Cc1ccc([N+](=O)[O-])cc1)NCc1ccccc1Cl the results were FGF22 binding inactive, ALR inh -3, UCH37 inh -0.2, Beta2AR agonist -12, E coli growth 0.65 and HNF4A DNA FP 0.8.
CCOc1ccc(CC(=O)Nc2ccc(S(=O)(=O)N3CCCC3)cc2)cc1 was read as FGF22 binding inactive, rRNA inh HTS 5, ALR inh -7, UCH37 inh 3.3, Beta2AR agonist -1, E coli growth 0.71, HNF4A DNA FP 2.3, rRNA inh HTS OD600 13 and rRNA inh HTS RFP 1.4.
`CCN(CC)CCOC(=O)C(Cc1ccco1)Cc1cccc2ccccc12` (configuration not stated) gave FGF22 binding inactive, rRNA inh HTS -34*, ALR inh -1, UCH37 inh 4.0, Beta2AR agonist -5, E coli growth 0.69, HNF4A DNA FP -1.9, rRNA inh HTS OD600 -25* and rRNA inh HTS RFP -1.3*.
`O=C(NCCN1CCN(c2ccccc2)CC1)c1cccn2c(=O)c3ccccc3nc12` gave ALR inh 21, UCH37 inh -30, Beta2AR agonist 10, E coli growth 0.6 and HNF4A DNA FP -5.0.
`O=C1OC(c2ccccc2)/C(=C(/O)c2ccccc2)C1=O` (configuration not stated) gave ALR inh 92*, UCH37 inh 2.5, Beta2AR agonist 3 and HNF4A DNA FP 0.9.
C=CCn1c(SCC(=O)NC2CC2)nnc1-c1cccs1 was read as FGF22 binding inactive, rRNA inh HTS 3, ALR inh -9, UCH37 inh -2.3, Beta2AR agonist -3, E coli growth 0.68, HNF4A DNA FP 3.7, rRNA inh HTS OD600 7 and rRNA inh HTS RFP -0.4.
For Cc1ncc([N+](=O)[O-])n1CC(=O)Nc1ccc(Cl)cc1 the results were FGF22 binding inactive, rRNA inh HTS -2, ALR inh -6, UCH37 inh 2.8, Beta2AR agonist 1, E coli growth 0.65, HNF4A DNA FP -0.6, rRNA inh HTS OD600 -6 and rRNA inh HTS RFP -8.9.
Screening CC(C)CCn1c(SCCc2ccccc2)nc2c1c(=O)[nH]c(=O)n2C returned ALR inh 2, UCH37 inh 2.5, Beta2AR agonist -5, E coli growth 0.76 and HNF4A DNA FP 0.1.
Screening CCO[C@H]1OC(C(=O)Nc2ccccc2)=C[C@@H](C2CC2)[C@@H]1CCCO returned rRNA inh HTS 1, ALR inh -6, UCH37 inh 3.8, Beta2AR agonist -5, HNF4A DNA FP 0.3, rRNA inh HTS OD600 1 and rRNA inh HTS RFP 1.3.
`CCNC(=O)c1cc2c(=O)n3cccc(C)c3nc2n(CCc2ccccc2)c1=N` gave ALR inh -1, UCH37 inh inactive, Beta2AR agonist 89*, E coli growth 0.71 and HNF4A DNA FP -4.2.
For Cn1c(CN2CCCCC2)c(C#N)c2ccccc21 the results were FGF22 binding inactive, rRNA inh HTS 5, ALR inh -2, UCH37 inh 0.8, Beta2AR agonist 2, E coli growth 0.66, HNF4A DNA FP -1.9, rRNA inh HTS OD600 -5 and rRNA inh HTS RFP 3.3.

The final 2 compounds of the part before are carried over, then new ones follow.
`CCNC(=O)c1cc2c(=O)n3cccc(C)c3nc2n(CCc2ccccc2)c1=N` gave ALR inh -1, UCH37 inh inactive, Beta2AR agonist 89*, E coli growth 0.71 and HNF4A DNA FP -4.2.
For Cn1c(CN2CCCCC2)c(C#N)c2ccccc21 the results were FGF22 binding inactive, rRNA inh HTS 5, ALR inh -2, UCH37 inh 0.8, Beta2AR agonist 2, E coli growth 0.66, HNF4A DNA FP -1.9, rRNA inh HTS OD600 -5 and rRNA inh HTS RFP 3.3.
For COC(=O)COc1cc(OCC(=O)OC)c2c(C)c(Cl)c(=O)oc2c1 the results were ALR inh -10, UCH37 inh inactive, Beta2AR agonist 17, E coli growth 0.67 and HNF4A DNA FP 1.1.
`C=CCn1cc(C(=O)NCCOC)c(=O)c2cc(S(=O)(=O)N(CC)CC)ccc21` gave rRNA inh HTS 11, ALR inh -29, UCH37 inh 4.2, Beta2AR agonist -7, E coli growth 0.67, HNF4A DNA FP 0.6, rRNA inh HTS OD600 13 and rRNA inh HTS RFP 3.9.
`CCn1c(SCc2ccc(F)cc2)nc2c(c1=O)SCC2` gave FGF22 binding inactive, rRNA inh HTS -31*, ALR inh 48, UCH37 inh 5.4, Beta2AR agonist 1, E coli growth 0.67, HNF4A DNA FP -2.7, rRNA inh HTS OD600 -23* and rRNA inh HTS RFP -5.7*.
O=C(COc1ccccc1Cl)NC(=O)NC1CCCCC1 was read as FGF22 binding inactive, rRNA inh HTS -1, ALR inh -2, UCH37 inh 0.9, Beta2AR agonist -14, E coli growth 0.68, HNF4A DNA FP -7.1, rRNA inh HTS OD600 -14 and rRNA inh HTS RFP 8.9.
Screening O=C(c1nc2ccccc2s1)N1CCN(c2ccccn2)CC1 returned ALR inh 12, UCH37 inh 5.3, Beta2AR agonist 6, E coli growth 0.69 and HNF4A DNA FP 2.4.
`CC(C)(C)C1CCC(=NNC(=O)C(=O)NC2CCCCC2)CC1` (configuration not stated) gave ALR inh -6, UCH37 inh 3.2, Beta2AR agonist 1, E coli growth 0.68 and HNF4A DNA FP -4.0.
Screening NC(=O)Cn1cc(C(=O)COc2ccccc2)c2ccccc21 returned FGF22 binding inactive, rRNA inh HTS -22, UCH37 inh -0.2, E coli growth 0.73, rRNA inh HTS OD600 -20 and rRNA inh HTS RFP -3.9.
Screening CSC(=S)N/N=C/c1ccc(Br)cc1 returned FGF22 binding inactive, rRNA inh HTS 3, ALR inh 1, Beta2AR agonist 4, HNF4A DNA FP -1.2, rRNA inh HTS OD600 7 and rRNA inh HTS RFP -0.5.
For COC(=O)C(CCCCNC(=O)c1ccc([N+](=O)[O-])cc1)NC(=O)c1ccc([N+](=O)[O-])cc1 (configuration not stated) the results were ALR inh -7, UCH37 inh -1.4, Beta2AR agonist 16, E coli growth 0.69 and HNF4A DNA FP 0.3.
Screening COc1ccc(OC)c(N/C=C/C(=O)c2ccccc2)c1 returned FGF22 binding inactive, rRNA inh HTS 3, Beta2AR agonist 2, HNF4A DNA FP 9.8, rRNA inh HTS OD600 11 and rRNA inh HTS RFP -0.5.
For COc1ccc(CCNC(=O)c2cccc(-n3cnnn3)c2)cc1 the results were FGF22 binding inactive, rRNA inh HTS -4, ALR inh -1, UCH37 inh 2.7, Beta2AR agonist -11, E coli growth 0.72, HNF4A DNA FP 1.3, rRNA inh HTS OD600 -3 and rRNA inh HTS RFP 0.1.
For Cc1ccccc1Cc1c(C)nc2c(C(=O)NCc3ccco3)cnn2c1C the results were FGF22 binding inactive, rRNA inh HTS -40, ALR inh 5, UCH37 inh -85, Beta2AR agonist 9, E coli growth 0.64, HNF4A DNA FP 2.9, rRNA inh HTS OD600 -58 and rRNA inh HTS RFP -14.
Cn1c(CNC(=O)Nc2cccc(Cl)c2)nnc1SCc1ccccc1 was read as UCH37 inh 5.8, Beta2AR agonist -5, E coli growth 0.63 and HNF4A DNA FP 0.7.
C=CCc1ccccc1OCCNCCCOC was read as FGF22 binding inactive, rRNA inh HTS 16, ALR inh -10, UCH37 inh 1.5, Beta2AR agonist -1, E coli growth 0.67, HNF4A DNA FP 2.1, rRNA inh HTS OD600 2 and rRNA inh HTS RFP 0.8.
`Cc1cc(C(F)(F)F)n2nc(C(=O)O)c(Cl)c2n1` gave ALR inh -20, UCH37 inh 3.7, Beta2AR agonist 3, E coli growth 0.78 and HNF4A DNA FP -0.7.
For O=[N+]([O-])c1c(C(Cl)Cl)nn(-c2ccccc2)c1N1CCCC1 the results were FGF22 binding inactive, rRNA inh HTS -43*, ALR inh 4, UCH37 inh 2.9, Beta2AR agonist -7, E coli growth 0.68, HNF4A DNA FP -0.4, rRNA inh HTS OD600 -31* and rRNA inh HTS RFP -8.2*.
For CCc1nc2sc(C(=O)O)c(N)c2c2c1CCCC2 the results were FGF22 binding inactive, rRNA inh HTS 1, UCH37 inh 2.8, Beta2AR agonist 4, E coli growth 0.67, HNF4A DNA FP 0.1, rRNA inh HTS OD600 -10 and rRNA inh HTS RFP 1.7.
Screening CCOC(=O)CC(=O)c1sc2c(c1N)c(=O)[nH]c(=O)n2-c1ccc(OC)cc1 returned FGF22 binding inactive, rRNA inh HTS 12, ALR inh 4, UCH37 inh 2.2, Beta2AR agonist 0, E coli growth 0.68, HNF4A DNA FP 1.2, rRNA inh HTS OD600 17 and rRNA inh HTS RFP 2.3.
Screening O=C(c1cc2ccccc2oc1=O)N(Cc1ccco1)C1CCS(=O)(=O)C1 (configuration not stated) returned ALR inh -3, UCH37 inh -0.4, Beta2AR agonist 28, E coli growth 0.7 and HNF4A DNA FP 2.0.
For Cn1c(C(=O)O)c(CC(=O)N2CCC(Cc3ccccc3)CC2)c2ccccc21 the results were FGF22 binding inactive, rRNA inh HTS -26*, ALR inh 8, UCH37 inh 1.2, Beta2AR agonist -7, E coli growth 0.68, HNF4A DNA FP 0.3, rRNA inh HTS OD600 -10* and rRNA inh HTS RFP -10*.
For O=C1CC(c2ccco2)CC(O)=C1C=Nc1cc(Cl)cc(Cl)c1 (configuration not stated) the results were ALR inh 3, UCH37 inh 0.1, Beta2AR agonist -6, E coli growth 0.77 and HNF4A DNA FP -2.2.

Compound activity: PubChem, several laboratories

Not all compounds are listed; rates above refer to the full screens.
